# SMN2 splice up – SMN2 splice variant enhancement | HEK293 SMN2-luciferase splicing reporter, luminescence, 30-36 h | Potency, µM (highest dose often 46.1 µM), inactives show at the highest dose activity change, positive = activation, actives largely listed as activators | hit rate 2.8% among 210,000 | AID 1458; note: % of control where 0% means no effect; nearly all actives have a fitted effect of over 55% in size
#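 HEK293 cells carry an SMN2 […]–luciferase reporter in which exon 7 inclusion puts luciferase in frame. Cells were plated 10-12 h before compound addition, then incubated 30-36 h at 37C. ONE-Glo luminescence was read; sodium butyrate at 4.5 mM final served as control.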
# ALDH1A1 block – inhibitors of human aldehyde dehydrogenase 1A1; Purified ALDH1A1, NADH fluorescence, propionaldehyde substrate; Potency, µM (highest dose often 75.3 µM), inactives show at the top dose activity, negative = inhibition, actives largely listed as inhibitors; hit rate 7.3% among 220,000; AID 1030; active = well fitted inhibition curve with a large enough effect, not every such curve was filed as active; inconclusive = small, poorly fitted or top-dose-only effect, or another doubt; inactive = no such curve, though single readings can be large or run the other way;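 note: plate controls were no enzyme wells and a reference inhibitor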
# Target sequence (P00352 whole entry, looked up): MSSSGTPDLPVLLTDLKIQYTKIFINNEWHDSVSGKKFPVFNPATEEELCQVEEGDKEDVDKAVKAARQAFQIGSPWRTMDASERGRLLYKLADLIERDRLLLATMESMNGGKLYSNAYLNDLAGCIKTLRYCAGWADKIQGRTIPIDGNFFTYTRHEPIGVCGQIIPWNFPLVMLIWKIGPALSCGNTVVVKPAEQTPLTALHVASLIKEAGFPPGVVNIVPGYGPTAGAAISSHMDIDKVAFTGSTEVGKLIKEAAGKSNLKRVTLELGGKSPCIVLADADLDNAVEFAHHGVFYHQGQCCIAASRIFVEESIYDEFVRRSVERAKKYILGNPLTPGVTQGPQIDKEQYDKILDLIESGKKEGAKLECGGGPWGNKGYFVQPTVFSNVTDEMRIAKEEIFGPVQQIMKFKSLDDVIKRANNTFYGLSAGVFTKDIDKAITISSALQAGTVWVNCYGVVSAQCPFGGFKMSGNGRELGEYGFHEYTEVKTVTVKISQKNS
# GAA inh – alpha-glucosidase (human) inhibition | AID 1466 | hit rate 0.005% among 200,000 | Potency, µM (series often up to 76.9 µM), without a hit: at the top dose activity change, negative = inhibition, usual class: inhibitors | P10253 | purified human GAA, 4-MU-alpha-glucoside fluorescence;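 note: plate controls were uninhibited enzyme wells for no effect and no-enzyme background for full effect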
#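 Human enzyme at 4 nM with 400 uM 4-methylumbelliferyl-alpha-D-pyranoside, citrate/phosphate buffer pH 5.0, 0.005% Tween-20, 20 min at room temperature. Compounds up to 77 uM. 4-MU fluorescence (Ex 365/Em 440) read after NaOH/glycine stop; AC50 from Hill fit.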
# aGlu spleen mod – inhibitors or activators of human alpha-glucosidase in spleen homogenate; Potency, µM (highest dose often 79.9 µM), inactives show at the highest dose activity change, negative = inhibition, most hits filed as inhibitors; P10253; human spleen homogenate, 4-MU-alpha-glucoside fluorescence; hit rate 0.006% among 240,000;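 note: 0% = enzyme with vehicle and -100% = no enzyme basal signal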
#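 Compounds were titrated against alpha-glucosidase in spleen homogenate at pH 5.0, with 1 mM 4-methylumbelliferyl substrate for 40 min at 37 C. Reactions were quenched with pH 10 NaOH/glycine and fluorescence measured.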
# aGal spleen mod – inhibits or activates alpha-galactosidase in human spleen homogenate; P06280; hit rate 0.008% among 240,000; human spleen homogenate, 4MU-alpha-Gal fluorescence, 40 min; Potency, µM (top dose mostly 80 µM), without a hit: top-dose activity change, negative = inhibition, hits mostly inhibitors;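 note: 0% = enzyme with vehicle and -100% = no enzyme basal signal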
# Target sequence (P06280 32-429 limits assumed): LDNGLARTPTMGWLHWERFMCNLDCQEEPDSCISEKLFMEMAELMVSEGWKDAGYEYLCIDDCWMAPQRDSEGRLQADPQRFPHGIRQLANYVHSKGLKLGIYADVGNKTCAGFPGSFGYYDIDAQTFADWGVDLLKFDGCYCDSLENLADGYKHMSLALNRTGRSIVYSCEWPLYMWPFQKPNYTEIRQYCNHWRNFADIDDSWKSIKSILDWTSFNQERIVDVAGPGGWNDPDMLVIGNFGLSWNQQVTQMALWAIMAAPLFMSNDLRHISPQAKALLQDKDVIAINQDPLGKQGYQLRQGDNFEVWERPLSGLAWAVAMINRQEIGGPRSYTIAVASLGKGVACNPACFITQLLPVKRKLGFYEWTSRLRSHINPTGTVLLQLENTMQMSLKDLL
#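 Fluorogenic readout (Ex 365/Em 440 nm) of 4-methylumbelliferone released from 1 mM 4-MU-alpha-galactoside by spleen homogenate, 40 min at 37C, pH 5.0. Data normalized to no-enzyme and enzyme controls; Hill-equation AC50 from compound titrations.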
# GAA glycogen – inhibitors or activators of human alpha-glucosidase glycogen cleavage; P10253; recombinant GAA, glycogen substrate, Amplex Red glucose oxidase fluorescence; Potency, µM (series often up to 76.4 µM), for inactives: at the top dose activity change, negative = inhibition, usual class: inhibitors; hit rate 0.38% among 300,000; AID 2100;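 note: 0% = full enzyme reaction and -100% = no-enzyme basal signal; the screen sought inhibitors and activators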
#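 Recombinant enzyme (4 nM final) with compounds titrated up to 77 uM and bovine liver glycogen (30 ug) in citrate pH 5.0, 0.01% Tween-20, 37 C 40 min. Released glucose detected by Amplex Red/glucose oxidase (Ex 573/Em 610); AC50 from Hill fits.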
# JMJD2E inh – JMJD2E (human) inhibition. B2RXH2. JMJD2E catalytic domain, FDH-coupled NADH fluorescence (FDH is formaldehyde dehydrogenase). Potency, µM (series often up to 57.1 µM), without a hit: top-dose activity change, negative = inhibition, most hits filed as inhibitors. hit rate 1.6% among 230,000. AID 2147; active = well fitted inhibition curve with a large enough effect, not every such curve was filed as active; inconclusive = small, poorly fitted or top-dose-only effect, or another doubt; inactive = no such curve, though single readings can be large or run the other way;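 note: 0% = wells with enzyme and -100% = buffer wells without enzyme; nearly all actives have a fitted effect of over 50% in size; many of its hits are not listed in these tables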
# Starred values were filed as active, the others as inactive; ? = inconclusive; / = not tested or not shown; & = joins results of further samples; [ ] = another dose, or the depositor's remark. Unless noted, calls come from the whole dose curve; as a rule, active = well fitted curve in the direction sought with a large enough effect; inconclusive = small, poorly fitted or top-dose-only effect, or another doubt; inactive = no such curve, though single readings can be large; an effect the other way counts as inactive or inconclusive. Potency is the fitted concentration of half-maximal effect. The list is partial (hit frequency here may not be typical).
SMILES,SMN2 splice up,ALDH1A1 block,GAA inh,aGlu spleen mod,aGal spleen mod,GAA glycogen,JMJD2E inh
CCS(=O)(=O)Nc1ccc(-c2ccc(NS(=O)(=O)CC)c(OC)c2)cc1OC,-16%,8%,9%,-4%,2%,13%,3%
COc1ccc(C(=O)NCc2nnc(SCC(=O)N3CCCCC3)o2)cc1,-3%,?,2%,-4%,-1%,-6%,9%
CCOC(=O)c1c(C)c(C)n2c1NC(=O)C2,-1%[9.22 µM],-7%[13.5 µM],/,/,/,/,/
Cc1ccc(NC(=O)C(Nc2cccc(C)c2)c2ccccc2)cc1 (stereo unspecified),-8%,28µM*,5%,-14%,?,-5%,-3%
CCn1c(SC)nnc1-c1nn(-c2ccccc2)ccc1=O,10%,-4%,0%,/,1%,3%,-7%
COc1ccc(C2CC(=O)N3CN(c4ccccc4F)CSC3=C2C#N)cc1OC (stereo unspecified),-15%,7.1µM*,-15%,7%,9%,17%,28µM*
CC(=O)N1[C@H](C)C=C[C@]1(Cc1ccccc1)C(=O)NCc1cc(F)cc(C(F)(F)F)c1,-12%&-13%,3%&-3%,0%,0%&-22%,0%&2%,7%,4%&-13%
Cc1cc(C)nc(Sc2nc(Nc3ccccc3)nc(Sc3nc(C)cc(C)n3)n2)n1,?,6%,-1%,-1%,5%,-5%,4%
CCOc1cc(/C=N/NC(=O)c2ccc(O)cc2)ccc1Oc1nc(Cl)ncc1F,3%,-6%,3%,1%,-6%,-5%,?
COc1ccc(CCN(C)C(=O)CN2C(=O)c3ccccc3S2(=O)=O)cc1OC,-1%,-9%,-2%,5%,0%,-9%,-10%
C[C@H]1CC2[C@@H]3CCC4=CC(=O)C=C[C@]4(C)[C@@]3(F)[C@@H](O)C[C@]2(C)[C@@]1(O)C(=O)CO (stereo partly specified),6%,-2%,/,-10%,-3%,/,5%
CC(=O)N1CCN(S(=O)(=O)c2cccc(C(=O)Nc3ccc4c(c3)CCC4)c2)CC1,-39%[inhibitor],?,-4%,-2%,-3%,-6%,-2%
O=C(NNC(=S)Nc1ccc(Cl)cc1Cl)c1ccc(N2CCOCC2)c([N+](=O)[O-])c1,-56%[inhibitor],0.45µM*,-10%,-1%,0%,-25%,3%
CCCC(C)NC(=O)COc1ccc(S(=O)(=O)c2ccc(OCC(=O)NC(C)CCC)cc2)cc1 (stereo unspecified),-8%,?,1%,-5%,5%,1%,0%
O=C(c1ccccc1F)N1CCC(N2CCCCCC2)CC1,7%,2%,4%,-1%,2%,1%,3%
Cc1nnc(SCC(=O)NCc2ccco2)n1-c1ccccc1,-2%,3%,1%,0%,-1%,8%,2%
CC(C)(C)c1ccccc1NC(=O)c1ccc2c(c1)SC1=NS(=O)(=O)CCN12,/,/,/,10%,8%,-3%,-3%
O=C(O)CS(=O)c1ccc2c3c(cccc13)C(=O)c1ccccc1-2 (stereo unspecified),-3%[9.22 µM],19%[13.5 µM],/,/,/,/,/
S=c1[nH]nc(COc2ccccc2)n1/N=C/c1ccc(Br)s1,-3%,?,0%,4%,-7%,?,-5%
CCn1c(SCC(=O)Nc2nc3ccccc3s2)nc2c(c1=O)SC(C)C2 (stereo unspecified),-52%[inhibitor],-7%,?,-1%,4%,-1%,-8%
N#C/C(=C\c1ccc(Cl)cc1)c1nc(-c2ccco2)cs1,21%,9%,-4%,9%,10%,1%,-5%
O=C(OOC(=O)c1ccccc1)c1ccccc1,/,-11%,/,4%&-5%,-4%&1%,/,/
S=c1[nH]nc(COc2ccccc2)n1/N=C/c1ccco1,5%,?,5%,-13%,5%,-23%,?
O=C(CSc1ncccn1)N1CCN(C(c2ccccc2)c2ccccc2)CC1,0%,?,-2%,-5%,-3%,7%,-12%
O=C(NNS(=O)(=O)c1ccccc1[N+](=O)[O-])c1ccc(O)cc1,1%,3.2µM*,-4%,-1%,3%,?,-2%
c1ccc(Sc2cccc3ccccc23)c(CNC2=NCCN2)c1,?,1%,-4%,1%,1%,-3%,-2%
CCOC(=O)c1ccc(NNC(=O)CC)c([N+](=O)[O-])c1,5%,-1%,-2%,/,-2%,-10%,1%
COc1ccc(CSCC(=O)N/N=C/c2ccccc2OCc2ccccc2)cc1,7%,-8%,-11%,-9%,-6%,-13%,-2%
O=C(c1ccc(Cl)cc1)N1CCN(c2cccc3[nH]ccc23)CC1,/,/,/,-8%,-8%,?,1%
CCc1ccc2nc3sc(C(=O)N4CCc5ccccc54)c(N)c3cc2c1,-10%,-13%,1%,-7%,-7%,1%,-7%
C=CCN1C(=O)S/C(=C\c2ccc3c(c2)n(C)c(=O)n3C)C1=O,?,0.28µM*,?,-4%,3%,8%,-7%
CCC(CC)C(=O)NC12CC3CC(CC(C3)C1)C2,?,9%,-3%,3%,4%,5%,5%
CC(=O)OC1CC[C@@]2(C)C(CC[C@@]3(C)C2CC=C2C4CC(C)(C)CC[C@]4(C)CC[C@@]23C)C1(C)C (stereo partly specified),9%,2%,/,4%,-11%,/,-47%
Oc1ccc(N=Cc2cc(Br)c(N3CCOCC3)o2)cc1,7%,8.9µM*,-2%,2%,2%,-4%,0%
Cc1[nH]c2ccccc2c1/C=C(\C#N)C(=O)NC(C)c1ccccc1 (stereo unspecified),1%,2%,2%,-4%,-1%,-11%,?
COCCNC(=O)[C@@]1(Cc2ccccc2)C=C[C@@H](C)N1C(=O)OC,-12%,3%,/,5%,-4%,/,-3%
CCOC(=O)N1CCN(c2cc(=O)n(-c3ccc(C)cc3)c(=O)[nH]2)CC1,-10%,-6%,-5%,9%,8%,8%,12%
Cc1cc(NC(=O)CSc2nc3c(c(=O)n2CCc2ccccc2)SC(C)C3)no1 (stereo unspecified),-18%,11%,3%,-7%,5%,-4%,-25%
Cn1c(=O)c2c(nc(SCC(=O)O)n2Cc2cc3c(cc2Cl)OCO3)n(C)c1=O,-34%[inhibitor],35µM*,-6%,-5%,-9%,-4%,?
CC1CCCC(C)N1C(=O)CSc1nnc(COc2ccccc2)n1-c1ccccc1 (stereo unspecified),-41%[inhibitor],-11%,-13%,0%,4%,4%,0%
CCOC(=O)C1CCN(C(=O)Cc2cccc3ccccc23)CC1,-25%,-3%,5%,-1%,-7%,8%,?
Cc1cccc2sc(N(CCN(C)C)C(=O)/C=C/c3cccs3)nc12,-34%[inhibitor],?,?,0%,0%,4%,?
CN(c1ccc(C(=O)NCC2CCCO2)cc1)S(C)(=O)=O (stereo unspecified),-8%,0%,7%,4%,12%,-3%,7%
CC12CCC(=O)C=C1CCC1C2C(=O)CC2(C)C1CC[C@]2(O)C(=O)CO (stereo partly specified),/,/,/,/,/,0%,/
CCN(CCNC(=O)C1CCN(S(C)(=O)=O)CC1)c1ccccc1,11%,9%,4%,-7%,-5%,-8%,3%

# 9 of the compounds above, with tabs:
structure	SMN2 splice up	ALDH1A1 block	GAA inh	aGlu spleen mod	aGal spleen mod	GAA glycogen	JMJD2E inh
C=CCN1C(=O)S/C(=C\c2ccc3c(c2)n(C)c(=O)n3C)C1=O	?	0.28µM*	?	-4%	3%	8%	-7%
CCC(CC)C(=O)NC12CC3CC(CC(C3)C1)C2	?	9%	-3%	3%	4%	5%	5%
CC(=O)OC1CC[C@@]2(C)C(CC[C@@]3(C)C2CC=C2C4CC(C)(C)CC[C@]4(C)CC[C@@]23C)C1(C)C (stereo partly specified)	9%	2%	/	4%	-11%	/	-47%
Oc1ccc(N=Cc2cc(Br)c(N3CCOCC3)o2)cc1	7%	8.9µM*	-2%	2%	2%	-4%	0%
Cc1[nH]c2ccccc2c1/C=C(\C#N)C(=O)NC(C)c1ccccc1 (stereo unspecified)	1%	2%	2%	-4%	-1%	-11%	?
COCCNC(=O)[C@@]1(Cc2ccccc2)C=C[C@@H](C)N1C(=O)OC	-12%	3%	/	5%	-4%	/	-3%
CCOC(=O)N1CCN(c2cc(=O)n(-c3ccc(C)cc3)c(=O)[nH]2)CC1	-10%	-6%	-5%	9%	8%	8%	12%
Cc1cc(NC(=O)CSc2nc3c(c(=O)n2CCc2ccccc2)SC(C)C3)no1 (stereo unspecified)	-18%	11%	3%	-7%	5%	-4%	-25%
Cn1c(=O)c2c(nc(SCC(=O)O)n2Cc2cc3c(cc2Cl)OCO3)n(C)c1=O	-34%[inhibitor]	35µM*	-6%	-5%	-9%	-4%	?

# Next compounds follow:
SMILES,SMN2 splice up,ALDH1A1 block,GAA inh,aGlu spleen mod,aGal spleen mod,GAA glycogen,JMJD2E inh
CCc1ccccc1N1CSC2=C(C#N)C(c3ccccc3F)CC(=O)N2C1 (stereo unspecified),-5%,2.8µM*,-5%[15.4 µM],-1%,9%,0%,32µM*
O=C(c1nc(-c2ccccc2)n(-c2ccccc2)n1)N1CCCCCC1,-6%,8.9µM*,3%,1%,3%,4%,-4%
S=c1[nH]nc(COc2ccccc2)n1/N=C/c1ccccn1,2%,?,3%,3%,4%,7%,-3%
CN(C)CCCN(C(=O)c1ccco1)c1nc2ccc(Br)cc2s1,-32%[inhibitor],-1%,2%,2%,1%,10%,?
CC(C)(C)OC(=O)N1CCCC1C(=O)NCCc1ccccc1 (stereo unspecified),-17%,9%,-2%,8%,-4%,5%,1%
Cc1cccc(-n2c(SCC(=O)NCc3ccco3)nnc2-c2ccco2)c1,-16%,3%,-2%,5%,9%,-18%,10%
CC1=CC(C)(C)NC(=S)N1c1ccc(C)cc1C,/,8%,2%,0%,1%,4%,-5%
COc1cc(OC)cc(C(=O)NCc2ccc3c(c2)cc(C)n3C)c1,0%,?,4%,-1%,-11%,?,12%
CC12CCC(C/C1=N\N=C1\NC(=O)/C(=C\c3cccc(Br)c3)S1)C2(C)C (stereo unspecified),-4%,-12%,?,1%,2%,3%,11%
Cc1cnc(CNc2cc(-c3ccoc3)ncn2)cn1,5%,?,/,9%,-7%,/,?
c1ccc(N(c2ccccc2)c2nc(-n3ccnc3)nc(-n3ccnc3)n2)cc1,-16%,-2%,-2%,2%,-1%,-3%,25%
Oc1ccccc1-c1cc(-c2ccc3c(c2)OCCO3)n[nH]1,3.2µM*,1%,-13%,-2%,8%,-20%,-7%
CCOCc1cnc(C)nc1NCC(=O)c1c(C)[nH]c2ccc(OC)cc12,?,?,-1%,-2%,4%,-4%,-3%
CC1CN(c2cc(=O)n(-c3cccc(Br)c3)c(=O)[nH]2)CC(C)O1 (stereo unspecified),-4%,-2%,4%,-5%,-2%,-1%,4%
COc1ccc(Cc2nnc(SCC(=O)NC3CCCCC3)n2C)cc1,16%,-13%,0%,-11%,-2%,-7%,-1%
